From PubChem
TRPML1 agonist: agonists of human TRPML1 channel | TRPML1-expressing cells, Ca2+ dye fluorescence, FDSS; host cell line not named in the record; reference of the full effect not given here | activation, % (concentration not given with the values) | actives 0.12% (n = 410,000) | AID 624414; in the data active = activation above about 50%; inconclusive = about 30% to 50%; inactive = below about 30%; note: 0% is about no effect; the text of the record puts the active cut at 80%
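TRPML1-DL cells, Tet-induced overnight (~16 h, 37 degrees C), loaded 45-90 min at room temperature with Ca8 no-wash calcium dye plus quencher. FDSS fluorescence: 10 s baseline, compound pin-transfer, 110 s agonist read, then EC80 54-4 (4uM final) and 110 s antagonist read.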
D2 ag: human D2 receptor agonism in beta-arrestin assay; activation, % (test concentration not listed); actives 0.084% (n = 360,000); P14416; DiscoveRx PathHunter D2 beta-arrestin, luminescence, 90 min; 100% = 57 uM dopamine signal; in the data active = activation above about 40%; inconclusive = about 15% to 40%; inactive = below about 15%; note: compound concentration not given in the record; the text of the record calls up to 30% inactive
Target sequence (P14416 whole entry, looked up): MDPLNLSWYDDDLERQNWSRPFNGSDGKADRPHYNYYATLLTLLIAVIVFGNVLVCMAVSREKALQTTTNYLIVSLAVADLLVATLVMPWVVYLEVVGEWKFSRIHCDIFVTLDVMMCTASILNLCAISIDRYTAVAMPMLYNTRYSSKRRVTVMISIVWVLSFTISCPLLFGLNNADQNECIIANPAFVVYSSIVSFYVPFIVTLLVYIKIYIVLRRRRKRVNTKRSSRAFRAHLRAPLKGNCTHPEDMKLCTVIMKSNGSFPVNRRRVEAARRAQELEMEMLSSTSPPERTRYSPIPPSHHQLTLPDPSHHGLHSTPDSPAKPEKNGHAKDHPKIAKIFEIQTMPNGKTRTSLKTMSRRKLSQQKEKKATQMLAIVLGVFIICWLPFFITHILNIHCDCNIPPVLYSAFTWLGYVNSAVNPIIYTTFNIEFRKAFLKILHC
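Agonist mode: compounds alone added to overnight-plated D2 PathHunter cells for 90 min at 37 C, with 57 uM final dopamine (EC100) defining full response. Beta-arrestin recruitment detected by chemiluminescent reagent, read after 1 h at ambient temperature.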
Six1-Eya2 inh: inhibitors of human Six1/Eya2 interaction; Q15475+O00167; AlphaScreen GST-Six1/His-Eya2 binding, biochemical; active compounds read low; control for the full effect not named in the record; activity change, % (concentration not given with the values); actives 0.56% (n = 360,000); AID 651725; in the data active = activity change below about -65%; inconclusive = about -30% to -65%; inactive = above about -30%; note: % is set by controls: 0 for no effect and ±100 for the full control effect
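GST-Six1 + His-Eya2 (5X stock: 250/500 nM); Tris pH 8.0, 300 mM NaCl, 0.05% BSA, 0.02% Tween 20; GSH donor/Ni acceptor beads; 1 h 37 °C dark; AlphaScreen readout.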
D2 PAM: potentiates the human D2 dopamine receptor allosterically; P14416; DiscoveRx D2 beta-arrestin cells, luminescence, 90 min; 100% = 57 uM dopamine signal; potentiation, % (no concentration beside the values); actives 0.23% (n = 360,000); AID 624464; active = potentiation of 50% or more; inconclusive = 30% to 50%; inactive = 30% or less;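 note: compound concentration not given in the record; tested on top of an EC20 dose of dopamine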
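PathHunter beta-arrestin assay in DiscoveRx D2 cells. Compounds were added with an EC20 of dopamine (50 nM final) for 90 min at 37 deg C. Luminescence was read 1 h after detection reagent, with 57 uM dopamine as the EC100 control.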
PINK1 modulator: PINK1 expression modulation; Potency, µM (titrated, usually from 76.6 µM), for inactives: at the top dose activation (PINK1 increase), usual class: activators; AID 624263; PINK1 immunofluorescence, high-content cytometry, 24 h; actives 0.2% (n = 410,000); active = well fitted activation curve with a large enough effect; inconclusive = small, poorly fitted or top-dose-only effect; inactive = flat fitted curve, though single readings scatter; cell line not stated here;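 note: potency is the fitted concentration of half-maximal effect; % of control where 0% means no effect; nearly all actives have a fitted effect of over 65% in size; a mitochondrial uncoupler was the plate control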
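Fluorescence from anti-PINK1 antibody, together with nuclear and cell stains, was scanned on a laser-scanning cytometer. Before staining, stable-line cells were incubated 24 hours with compounds at 5 concentrations; primary antibody 12 h at 10 degrees C.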
CtBP-E1A blk: inhibitors of CtBP/E1A interaction. AlphaScreen GST-E1A/His-CtBP binding, 1536-well; active compounds read low; control for the full effect not named in the record. activity change, % (no concentration beside the values). actives 0.49% (n = 340,000); in the data active means activity change below about -65%; inconclusive means about -30% to -65%; inactive means above about -30%; note: % is set by controls: 0 for no effect and ±100 for the full control effect
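Homogeneous bead-based format: GST-tagged E1A captured on glutathione donor beads, His-tagged CtBP on nickel acceptor beads; compounds precede bead addition by 2 h at 37 °C.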
Numbers without * were called inactive.

SMILES | TRPML1 agonist | D2 ag | Six1-Eya2 inh | D2 PAM | PINK1 modulator | CtBP-E1A blk
O=C(CCN1CCN(CCO)CC1)N1c2ccccc2Sc2ccc(C(F)(F)F)cc21 | 0.2 | 7.6 | -0.4 | -20.2 | 0.7% | -4.0

A portion of the library, so the mix of outcomes need not match the whole.
